D2 ag: activates the human D2 dopamine receptor; P14416; DiscoveRx PathHunter D2 beta-arrestin, luminescence, 90 min; 100% = 57 uM dopamine signal; activation, % (concentration not given with the values); 360,000 tested, 0.084% active; in the data active = activation above about 40%; inconclusive = about 15% to 40%; inactive = below about 15%; further: compound concentration not given in the record; the text of the record calls up to 30% inactive
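DiscoveRx PathHunter D2 beta-arrestin cells (2,100/well) attached overnight, then compound-stimulated 90 min at 37 C in HBSS/10 mM HEPES/0.1% Tween-20 buffer; beta-galactosidase complementation read by luminescence after 1 h at ambient temperature. Dopamine 57 uM final (EC100) as control.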
gsp antag: antagonizes gsp, the McCune-Albright syndrome mutation | Potency, µM (doses to about 76.9 µM), without a hit: at the top dose activity change, negative = inhibition, actives largely listed as inhibitors | 340,000 tested, 0.4% active | gsp-mutant cells, cAMP HTRF, 30 min; control for the full effect not named in the record | AID 624288; active = falling curve of any shape with a large fitted effect; inconclusive = falling curve, mostly with a smaller effect; inactive = flat or rising curve; cell line not stated here;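 further: intracellular cAMP measured with PDE inhibitor Ro 20-1724 present during compound exposure; potency means the concentration at half of the fitted maximal effect; on the % scale 0 is the no-effect control and ±100 the full control effect; nearly all actives have a fitted effect of over 65% in size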
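Cells, 2000/well, grown 16–24 h in DMEM 10% FBS with 0.5 mg/ml G418, then compounds plus […] (300 uM addition stock), 30 min at 37C. cAMP read by HTRF (cAMP-d2 and anti-cAMP antibody-K in lysis buffer) after 30 min RT.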
D2 PAM: human D2 receptor positive allosteric modulation. DiscoveRx D2 beta-arrestin cells, luminescence, 90 min; 100% = 57 uM dopamine signal. P14416. 360,000 tested, 0.23% active. potentiation, % (test concentration not listed); active = potentiation of 50% or more; inconclusive = 30% to 50%; inactive = 30% or less;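 further: compound concentration not given in the record; tested on top of an EC20 dose of dopamine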
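PathHunter beta-arrestin assay in DiscoveRx D2 cells. Compounds were added with an EC20 of dopamine (50 nM final) for 90 min at 37 deg C. Luminescence was read 1 h after detection reagent, with 57 uM dopamine as the EC100 control.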
Six1-Eya2 inh: blocks human Six1 binding to Eya2; Q15475+O00167; 360,000 tested, 0.56% active; activity change, % (concentration not given with the values); AID 651725; AlphaScreen GST-Six1/His-Eya2 binding, biochemical; active compounds read low; control for the full effect not named in the record; in the data active = activity change below about -65%; inconclusive = about -30% to -65%; inactive = above about -30%; further: on the % scale 0 is the no-effect control and ±100 the full control effect
Target sequence (O00167 whole entry, looked up): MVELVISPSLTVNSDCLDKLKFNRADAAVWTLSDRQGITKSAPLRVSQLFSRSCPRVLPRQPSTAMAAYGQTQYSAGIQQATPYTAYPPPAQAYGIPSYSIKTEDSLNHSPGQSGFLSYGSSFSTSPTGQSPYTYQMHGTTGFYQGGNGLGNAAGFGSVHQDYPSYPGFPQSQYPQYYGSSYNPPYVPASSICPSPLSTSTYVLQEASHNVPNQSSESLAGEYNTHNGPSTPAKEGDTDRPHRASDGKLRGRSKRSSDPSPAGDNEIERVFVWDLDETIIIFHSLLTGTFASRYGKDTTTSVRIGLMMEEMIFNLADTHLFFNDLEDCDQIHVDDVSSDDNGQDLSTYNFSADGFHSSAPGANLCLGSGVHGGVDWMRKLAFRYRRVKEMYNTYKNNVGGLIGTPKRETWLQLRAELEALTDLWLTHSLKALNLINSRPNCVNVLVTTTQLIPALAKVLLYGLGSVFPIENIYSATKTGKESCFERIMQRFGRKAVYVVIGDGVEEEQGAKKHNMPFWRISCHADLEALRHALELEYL
Target sequence (Q15475 whole entry, looked up): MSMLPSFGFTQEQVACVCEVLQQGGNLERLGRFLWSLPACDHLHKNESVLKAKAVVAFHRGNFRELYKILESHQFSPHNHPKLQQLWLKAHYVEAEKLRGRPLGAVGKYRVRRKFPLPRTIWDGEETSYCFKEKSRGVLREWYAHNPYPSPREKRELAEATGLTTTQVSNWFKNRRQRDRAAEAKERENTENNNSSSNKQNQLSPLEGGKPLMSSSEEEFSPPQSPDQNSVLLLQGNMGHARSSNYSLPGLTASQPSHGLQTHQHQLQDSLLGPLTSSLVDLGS
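AlphaScreen luminescence read after one hour at 37 °C in darkness. Pin-transferred compounds met GST-Six1 and His-Eya2 protein (5X stock 250 nM/500 nM) plus glutathione donor and Ni-chelate acceptor beads (5X, 50 ug/mL).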
CtBP-E1A blk: inhibitors of CtBP/E1A interaction; activity change, % (concentration not given with the values); 340,000 tested, 0.49% active; AlphaScreen GST-E1A/His-CtBP binding, 1536-well; active compounds read low; control for the full effect not named in the record; in the data active means activity change below about -65%; inconclusive means about -30% to -65%; inactive means above about -30%; further: on the % scale 0 is the no-effect control and ±100 the full control effect
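GST-E1A and His-tagged CtBP (125 nM each as 5X stock) were preincubated with pin-transferred compound for 2 h at 37 °C in the dark, then glutathione donor and nickel acceptor beads were added for 1 h before AlphaScreen reading.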
gsp agonist: agonists of gsp mutant (McCune-Albright syndrome) | gsp mutant cells, cAMP HTRF, 30 min; control for the full effect not named in the record | AID 624287 | 340,000 tested, 0.13% active | Potency, µM (series often up to 76.9 µM), for inactives: top-dose activation (cAMP increase), actives largely listed as activators; active = well fitted activation curve with a large enough effect; inconclusive = small, poorly fitted or top-dose-only effect, or another doubt; inactive = no such curve, though single readings can be large or run the other way; cell line not stated here;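 further: phosphodiesterase inhibitor Ro 20-1724 added with compounds to block cAMP breakdown; potency means the concentration at half of the fitted maximal effect; nearly all actives have a fitted effect of over 60% in size; about a fifth of the inactives were tested at one dose only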
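Cells in DMEM/10% FBS with G418 were pretreated with compounds in DMSO plus […] (300 uM stock) for 30 min at 37C. cAMP was measured by HTRF (cAMP-d2 plus anti-cAMP antibody-K) after 30 min at room temperature.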
* marks the source's active call; other numbers are inactive results; u = inconclusive; x = not tested or not shown; [ ] = dose if it differs, or a comment.

Values in the order: D2 ag	gsp agonist	D2 PAM	gsp antag	CtBP-E1A blk	Six1-Eya2 inh
COc1ccccc1CC(=O)N1CCC(n2nccc2NC(=O)C2CCOC2)CC1 (stereo not drawn)
  0.8	-3.2%[15.4 µM]	-11.2	7.4%	0.8	1.9
O=C(CCc1ccccn1)N1CCCC(Nc2cccc(F)c2)C1 (stereo not drawn)
  -5.4	-34.4%	-9.8	6.2%	-14.8	6.1
O=C(Cn1c(=O)cnc2ccccc21)Nc1cccc(S(=O)(=O)N2CCOCC2)c1
  1.1	14.5%	-1.7	-7.9%	5.0	1.1
Cn1c(SCC(=O)c2c(N)n(C)c(=O)n(C)c2=O)nnc1-c1ccccc1
  -1.1	-12.1%	-11.5	-4.8%	2.2	5.4
CCOc1ccc(C(C)=O)cc1N1C(=O)C2C3C=CC(C3)C2C1=O (stereo not drawn)
  -1.3	12.0%	1.4	7.0%	2.1	-8.3
CC(=O)N1CCOC12CCN(Cc1ccccc1)CC2
  -7.2	-9.8%	-1.0	x	3.3	0.8
CCC(=O)Oc1ccc(C(=O)Nc2c[nH]c(=O)[nH]c2=O)cc1
  -2.1	-4.1%	8.4	8.6%	0.8	u
COc1ccc2c(c1OC)C(=O)N(c1ccc(C)cc1)C2
  -4.5	-1.2%[15.4 µM]	-10.5	-14.2%	0.2	-1.4
CCNC(=S)Nc1ccc2c(c1)c(=O)n(C)n2Cc1ccc(Cl)cc1
  5.8	x	5.0	x	6.6	-0.2
O=C(Nc1ccc(F)cc1)N1CCCN(c2nccc(C(F)(F)F)n2)CC1
  -4.2	-15.4%	-24.3	-0.9%	x	6.4

Next entries.
Values in the order: D2 ag	gsp agonist	D2 PAM	gsp antag	CtBP-E1A blk	Six1-Eya2 inh
Cc1nc(-c2ccccc2)sc1-c1ccn[nH]1
  -4.9	u	-0.5	-3.7%	-6.3	-0.1
Cc1cc(NC(=O)COc2ccccc2C)ccc1NC(=O)c1ccco1
  -5.4	27.3%	-0.9	-7.3%	-14.7	-3.9
O=C(COC(=O)CCC(=O)Nc1nccs1)NCc1ccco1
  0.3	0.0%	2.4	13.3%	-7.1	-1.5
Cc1cccc(Cc2nnc(CCC(=O)N(C)Cc3ccncc3C)o2)c1
  -2.1	0.8%[15.4 µM]	-0.7	x	-6.8	3.6
Cc1ccc(Cl)cc1NC(=O)Cn1nc(-c2cccs2)ccc1=O
  0.8	7.4%	-2.1	-2.4%	0.0	-7.3
COc1ccc(NC(=O)C2Cc3c(-c4cccc(C(C)=O)c4)ccnc3O2)cc1OC (stereo not drawn)
  8.6	x	-3.8	x	-5.8	-17.2
C#Cc1ccc(NC(=O)C2(C)CCN2C(=O)C2(c3ccccc3)CC2)cc1 (stereo not drawn)
  -6.1	x	-9.3	x	2.2	-2.4
CSc1nc(N)nc(SCC(=O)Nc2ccc(Cl)cc2)c1C#N
  -0.2	3.9%	-12.0	u	-10.8	-5.5
Cc1cccc(NCc2ccccc2O)c1C
  -2.4	-1.1%	6.0	-17.6%	-8.0	-18.7
Cc1ccc(C(=O)Nc2cccc3cccnc23)cc1C
  -0.6	6.8%[15.4 µM]	-7.9	-6.1%	5.9	2.0

Continued.
Values in the order: D2 ag	gsp agonist	D2 PAM	gsp antag	CtBP-E1A blk	Six1-Eya2 inh
COc1ccc(CN=C2NN=C(c3ccc(Cl)cc3)CS2)cc1
  3.2	16.8%[15.4 µM]	0.1	-0.1%	0.4	4.5
COc1ccc(NC(=O)COC(=O)c2cc(C)oc2C)cc1OC
  0.0	-12.0%	0.8	-1.1%	-4.4	-3.5
C=CCn1c(SCC#N)nc2sc(CC)cc2c1=O
  -4.8	-37.8%[inhibitor]	-15.8	13.6%	5.7	-0.8
Nc1ccc(Br)cc1Br
  -7.4	25.1%	-4.0	7.0%	x	-0.6
Cc1cccc(CSc2ncccc2C(=O)O)c1
  1.3	15.1%[15.4 µM]	-2.6	-16.3%	16.4	5.4
Cc1cc(=O)oc2c(C)cc(C(C)(C)C)cc12
  -2.7	-1.7%	-1.4	0.2%	18.3	10.0
COCc1cccc(-c2csc(C(NC(C)=O)c3ccc(F)c(F)c3)n2)c1 (stereo not drawn)
  -2.1	x	0.4	x	-21.1	6.2
O=C(NCC(c1ccco1)N1CCN(c2ccccc2F)CC1)c1ccco1 (stereo not drawn)
  u	22.3%	8.4	-2.6%	-2.2	-0.5
CC1CCN(C(=O)Nc2cccc(NC(=O)N3CCC(C)CC3)c2)CC1
  -6.2	-15.3%	11.4	-1.8%[15.4 µM]	-8.4	0.6
O=C1C2C3C=CC(C3)C2C(=O)N1CCN1CCN(S(=O)(=O)c2ccc3ccccc3c2)CC1 (stereo not drawn)
  -2.5	-20.5%	-24.1	-14.0%	-0.7	-12.9

Later entries.
Values in the order: D2 ag	gsp agonist	D2 PAM	gsp antag	CtBP-E1A blk	Six1-Eya2 inh
CCCCCC1CC(CC(C)C(=O)Nc2nncs2)C(=O)O1 (stereo not drawn)
  1.2	-6.9%[15.4 µM]	1.1	1.2%	-0.1	18.3
Cc1nc(-c2ccccc2)sc1C1(C)CC(c2c(Cl)cccc2Cl)=NO1 (stereo not drawn)
  -1.3	x	-2.3	-22.3%	5.9	1.0
CCC(=O)N1CCc2cc(S(=O)(=O)CCC(=O)N3CCN(c4ccccc4)CC3)ccc21
  -2.7	u	-8.1	-6.3%	8.3	-1.1
O=C(Nc1ccc(Cl)cc1)C1C2C=CC3(O2)C1C(=O)N(CCCN1CCCCC1)C3C(=O)NC1CCCCC1 (stereo not drawn)
  1.5	18.8%	-7.6	5.8%	4.6	6.8
C[C@H](CO)N1C[C@H](C)[C@@H](CN(C)S(=O)(=O)c2cccs2)Oc2ccc(NS(=O)(=O)c3ccccc3)cc2CC1=O
  -0.3	x	x	-20.8%	6.9	-3.0
Cc1ccc(S(=O)(=O)NCC(c2cccnc2)N2CCOCC2)cc1 (stereo not drawn)
  -1.8	-10.0%	0.4	10.5%	x	-5.4
CN1CCc2c(C#N)c(N3CCOCC3)nc(NCC3CCCO3)c2C1 (stereo not drawn)
  -2.1	19.2%	0.4	-4.8%	x	2.2
COc1cc(N)c(Cl)cc1C(=O)OCC(=O)Nc1ccc(N2CCOCC2)cc1
  -2.8	21.2%	-2.3	10.9%	x	0.4
Cc1cccc(NC(=S)Nc2cccc(C(F)(F)F)c2)n1
  -6.2	-3.0%	6.0	2.4%	-6.1	2.5
CCc1cc(Cn2nc(-c3ccccc3)cc2C(=O)NCC2CC2)on1
  0.6	x	-7.6	-14.4%	9.8	8.3

Further compounds:
Values in the order: D2 ag	gsp agonist	D2 PAM	gsp antag	CtBP-E1A blk	Six1-Eya2 inh
O=C1NC2(CCCCCCC2)C(=O)N1Cc1ccc(F)cc1
  0.2	6.5%[15.4 µM]	1.4	5.5%	2.1	-1.4
COc1ccc(COC(=O)C2=C(C)NC(=O)NC2c2ccccc2F)cc1 (stereo not drawn)
  -4.2	-16.5%	0.6	-17.5%	8.0	-0.1
[O-][n+]1ccc(OCc2ccccc2)cc1
  -2.1	-2.0%[15.4 µM]	1.3	7.3%	18.9	1.8
CCc1cccc(NC(=O)CCCN2C(=O)NC(C)(C)C2=O)c1
  -1.1	-28.8%	-23.5	-6.5%	10.3	5.2
CC1=C(C(=O)OC2CCCCC2)C(c2ccco2)C2=C(CC(C)(C)CC2=O)N1 (stereo not drawn)
  -0.1	35.8%	6.1	-9.0%	9.7	-0.3
NC(=O)CSc1nnc(NC(=O)c2ccc3ccccc3c2)s1
  -1.0	7.3%[15.4 µM]	-17.1	-12.7%	3.2	2.1
Cc1ccc(NC(=S)NCCO)c(C)c1
  -0.2	u	-2.5	2.0%	2.0	-1.8
N#Cc1ccccc1Cn1c(=O)n(CCC(=O)NCc2ccco2)c(=O)c2ccccc21
  -0.3	9.8%[15.4 µM]	0.6	1.0%	-2.2	18.0
CN[C@@H](C)C(=O)NC[C@H]1O[C@@H](n2cnc3c(=O)[nH]c(N)nc32)[C@H](O)[C@@H]1O
  4.0	x	0.7	x	32.4	24.9
CSc1nnc(-c2sc3cc(Cl)ccc3c2Cl)n1C
  0.5	-21.2%	10.1	-13.8%	10.5	-0.8

Nine compounds out of the list, sorted by number of heavy atoms, ascending:
Values in the order: D2 ag	gsp agonist	D2 PAM	gsp antag	CtBP-E1A blk	Six1-Eya2 inh
[O-][n+]1ccc(OCc2ccccc2)cc1
  -2.1	-2.0%[15.4 µM]	1.3	7.3%	18.9	1.8
CSc1nnc(-c2sc3cc(Cl)ccc3c2Cl)n1C
  0.5	-21.2%	10.1	-13.8%	10.5	-0.8
Cc1cccc(NC(=S)Nc2cccc(C(F)(F)F)c2)n1
  -6.2	-3.0%	6.0	2.4%	-6.1	2.5
O=C1NC2(CCCCCCC2)C(=O)N1Cc1ccc(F)cc1
  0.2	6.5%[15.4 µM]	1.4	5.5%	2.1	-1.4
CCc1cccc(NC(=O)CCCN2C(=O)NC(C)(C)C2=O)c1
  -1.1	-28.8%	-23.5	-6.5%	10.3	5.2
CCc1cc(Cn2nc(-c3ccccc3)cc2C(=O)NCC2CC2)on1
  0.6	x	-7.6	-14.4%	9.8	8.3
COc1ccc(COC(=O)C2=C(C)NC(=O)NC2c2ccccc2F)cc1 (stereo not drawn)
  -4.2	-16.5%	0.6	-17.5%	8.0	-0.1
CC1=C(C(=O)OC2CCCCC2)C(c2ccco2)C2=C(CC(C)(C)CC2=O)N1 (stereo not drawn)
  -0.1	35.8%	6.1	-9.0%	9.7	-0.3
N#Cc1ccccc1Cn1c(=O)n(CCC(=O)NCc2ccco2)c(=O)c2ccccc21
  -0.3	9.8%[15.4 µM]	0.6	1.0%	-2.2	18.0

Continued:
Values in the order: D2 ag	gsp agonist	D2 PAM	gsp antag	CtBP-E1A blk	Six1-Eya2 inh
C=CCSc1nc2ccsc2c(=O)n1-c1ccccc1
  -21.0	2.7%[15.4 µM]	-1.0	-3.0%	4.8	1.1
COCc1nnc(NS(=O)(=O)c2ccc(NC(C)=O)cc2)s1
  -1.2	-2.7%	-34.2	6.5%	4.7	-1.2
CC(=O)N1CCN(c2ccccc2NC(=O)c2ccc(-c3cccc([N+](=O)[O-])c3)o2)CC1
  -0.4	12.4%[15.4 µM]	-3.2	u	-2.0	-18.5
O=C(COc1ccc2c3c(c(=O)oc2c1)CCC3)NCc1ccccn1
  -1.9	u	0.1	-4.7%	-6.9	-1.7
O=C(Nc1ccc(Cl)cc1)C1(S(=O)(=O)c2ccccc2)CC1
  -1.5	7.9%[15.4 µM]	-10.4	5.2%	4.4	-3.1
COc1ccc(C(=O)CN(C(=O)c2ccc(Cl)cc2)N2C(=O)C3CCCCC3C2=O)cc1 (stereo not drawn)
  0.0	7.3%	-4.5	-28.0%	-1.0	-2.8
Cc1ccc(C(=O)CSc2nc3ccc(C(=O)NCCN4CCCCC4)cc3c(=O)[nH]2)cc1
  -6.5	x	-17.4	3.2%	-2.4	0.0

Rows were taken by chance; about 1.4% have a hit in one of these screens.
